High-throughput results: PubChem BioAssay, ICCB-Longwood Screening Facility, Harvard Medical School
AID504770: E. coli YBA685 growth inhibition, screen for V. cholerae RctB inhibitors | E. coli YBA685 rctB-dependent plasmid, OD600 growth, 3 h; active compounds read low | z-score (test concentration not listed) | 130,000 compounds, 0.27% hits | AID 504770;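 active = z-score under -2 on both plates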;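 also: wells of about 30 µL received 100 nL stock; score is relative to mean and SD of the test wells; the first replicate is given; strong numbers were not always called active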
Ba CapD inh: CapD enzyme inhibition. z-score (concentration not given with the values). 140,000 compounds, 0.23% hits. purified CapD enzyme, fluorescence intensity read-out; active compounds read low; some hits fall short of the stated cut;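 active = z-score under -4 in either of two replicates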;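 also: stock transfer was 100 nL into about 40 µL; score is relative to mean and spread of the plate; one replicate is shown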
Active calls of the source: *; i = inactive; x = not tested or not shown; & = joins results of further samples.

Fields: AID504770	Ba CapD inh
- CCOC(=O)Cn1c(=O)oc2cc(S(=O)(=O)N3CCCC3)ccc21
 : 0.25	-0.36
- O=C(O)c1ccccc1CN1CCOCC1
 : -0.65	x
- Cc1ccc(C(=O)O)cc1N1CCCC1=O
 : 1.1	0.03
- CC(=O)n1c2c(c3ccccc31)OC(N)=C(C#N)C2c1ccc(Cl)cc1Cl (stereo not given)
 : -0.15	1.26
- CC(C#N)Sc1nc2ccc(Br)cc2c(=O)n1Cc1ccco1 (stereo not given)
 : 0.15	x
- Cc1ccccc1NC(=O)NC(N)=O
 : -0.35	0.675
- CCCCCOc1ccc(C2Oc3ccccc3C3CC(c4ccc(C)cc4)=NN32)cc1 (stereo not given)
 : x	-0.06
- CCOC(=O)c1ccc(Cn2c3cc([N+](=O)[O-])ccc3c3nn4cc(-c5ccc(OC)cc5)nc4nc32)o1
 : x	-1.1
- CC(C)(C)c1nc(S(=O)(=O)c2ccccc2)c(NCc2ccccc2)o1
 : 1.1	78
- O=C(CSc1nc2ccsc2c(=O)n1-c1ccc(F)cc1)c1ccc(O)c(O)c1
 : -0.65	-0.86
- CCN1CCN(c2cc(C)c3cc(NC(=O)CCC(=O)Nc4ccc(OC)c(OC)c4)ccc3n2)CC1
 : 0.75	19.1
- CC(C)c1ccc(S(=O)(=O)N2CCN(C(=O)CN3C(=O)c4ccccc4C3=O)CC2)cc1
 : 0.15	x
- Cc1ccc(COc2cccc(F)c2C#N)cc1
 : x	0.11
- COc1cccc(N2C(=O)NC(=O)/C(=C\c3ccc(OC)c([N+](=O)[O-])c3)C2=O)c1
 : x	-0.095
- Cc1ccc(-c2nnc3n2N=C(C(C)(C)C)CS3)cc1
 : -0.4	x
- CC1=CCC2C(=O)N(c3ccc(C(=O)OCC(=O)c4ccc(Br)cc4)cc3)C(=O)C2C1 (stereo not given)
 : x	-0.09
- Cc1cc(NC(=O)CCC(=O)O)no1
 : x	-0.025
- Cc1c2cnn(C)c(=O)c2c(C)n1-c1ccccc1
 : -0.25	21.6
- CCCCCn1c(=O)c2ccccc2n2c(Cn3nnc(-c4ccccc4)n3)nnc12
 : -0.35	x
- Nc1cccc(-c2cc(-c3ccccc3)nc(-c3cccc(N)c3)n2)c1
 : x	-0.035
- CC(C)=CCCC1(C)OC(=O)NC1(C)O (stereo not given)
 : 1	0.165
- COc1ccc(NS(=O)(=O)c2cc3c(cc2C)NC(=O)CO3)cc1
 : -2.1	-0.745
- COc1ccc(NS(=O)(=O)c2ccc(Cl)cc2)c(OC)n1
 : 0.3	-0.13
- O=C(c1cc(-c2ccccc2)on1)N1CCCC1
 : 2.15	0.13
- CCOc1cc(/C=C2\SC(=S)N(NC(=O)c3ccc(Br)cc3)C2=O)ccc1O
 : x	-0.2
- CN(C(=O)c1cc(-c2ccc(F)cc2)on1)c1ccccc1
 : -0.6	-0.665
- CCCc1cc(-c2onc(C)c2-c2ccc(C(=O)OCC)o2)c(O)cc1OC
 : 0.4	x
- COC(=O)c1ccsc1NC(=O)CN1CCN(S(=O)(=O)c2ccc(Cl)cc2)CC1
 : 0.85	0.66
- CCOC1(c2ccccc2)OC(=O)c2ccccc21 (stereo not given)
 : -0.8	-0.385
- NCCC(=O)N1c2ccccc2Sc2ccc(Cl)cc21
 : -1	x
- CCC(C(=O)O)n1c2ccccc2c2cn[nH]c(=O)c21 (stereo not given)
 : 0.45	-0.07
- Cc1cc(C)nc(NC#N)n1
 : -0.3	2.19
- O=C1CS(=O)(=O)C(c2ccccc2[N+](=O)[O-])N1c1ccc(Oc2ccc(Cl)cc2)cc1 (stereo not given)
 : x	0.285
- CC(C)N1C(=O)C(=Nc2ccc(C#N)cc2)c2ccccc21
 : -0.9	0.455
- c1ccn2cc(CN3CCCCC3)nc2c1
 : -0.85	1.18
- CCC(C)(C)NC(=O)Cn1[nH]c(=O)c2ccccc2c1=O
 : -0.95	x
- CN(c1ccc(Br)cc1)S(=O)(=O)c1ccc2[nH]cc(C(=O)N3CCOCC3)c(=O)c2c1
 : x	4.19
- COc1ccc(CCNC(=O)CCc2nnc3n(CCC(C)C)c(=O)c4ccccc4n23)cc1OC
 : -0.4	0.82
- Nc1sc2c(c1C(=O)O)CCCC2
 : 0.3	6.73
- CCOC(=O)c1sc(NC(=O)C2CC2)cc1C
 : -0.65	x
- CCN(CC)C(=O)C(c1ccccc1)c1ccccc1
 : -0.75	0.27
- COc1cc(C(C#N)N2CCOCC2)cc(OC)c1OC (stereo not given)
 : x	0.22
- Cc1nc(C)c(C(=O)OC(C)C(=O)Nc2ccc(C(N)=O)cc2)s1 (stereo not given)
 : -0.5	x
- NNC(=O)CNC(=O)c1ccc(S(=O)(=O)N2CCOCC2)cc1
 : 0.3	x
- CSc1nc2ccnn2c(=O)[nH]1
 : -0.5	-0.055
- N#CC1=C(N)C(C#N)(C#N)C(c2ccccc2)C2=C1CCCC2 (stereo not given)
 : 1.25	1.7
- Cc1ccc(S(=O)(=O)NCCC(=O)NC2=NCCS2)cc1C
 : 1.05	x
- Nc1c(-c2ccccc2)no[n+]1[O-]
 : -0.3	-1.05
- CCN1CCN(Cc2ccc(NC(=O)C3CCCN(S(=O)(=O)N4CCC5(CC4)OCCO5)C3)cc2)CC1 (stereo not given)
 : 0.2	0.255
- O=C(Nc1cccc(Cl)c1)c1cc(O)cc(O)c1
 : -1.25	i
- CCOC(=O)CC1=Nn2c(nnc2-c2cc(Cl)cc(Cl)c2)SC1
 : x	0.19
- CCOc1ccc2nc(NCCNC(=O)NCc3ccccc3)c(C#N)cc2c1
 : 0.05	x
- CN1CCN(CC2(c3ccccc3)CCCOc3ccccc32)CC1 (stereo not given)
 : x	0.09
- CCSc1nc2c(c(=O)n1-c1ccccc1OC)SCC2
 : 0.4	-0.835
- CCN(CC)C(=O)[n+]1ccc(OC)cc1
 : -0.35	-0.655
- CCOc1ccc(C(=O)C(CC(CN2CCOCC2)C(=O)c2ccc(OCC)cc2)CN2CCOCC2)cc1 (stereo not given)
 : -0.5	x
- O=C(CSc1ncn[nH]1)n1c2ccccc2c2ccccc21
 : -0.2	x
- Cc1nc(C(=O)NNC(=O)OCc2c(F)cccc2Cl)cs1
 : x	-0.43
- CCc1ccc(C(=O)COC(=O)c2n[nH]c3ccccc23)cc1
 : 0.35	x
- CCOC(=O)c1cc(-c2ccc(Cl)cc2)nc2c1c(=O)[nH]c(=O)n2CC(C)C
 : 0.8	x

A draw from above in order of SMILES length, largest number first:
Fields: AID504770	Ba CapD inh
- Cc1nc(C)c(C(=O)OC(C)C(=O)Nc2ccc(C(N)=O)cc2)s1 (stereo not given)
 : -0.5	x
- CCC(C)(C)NC(=O)Cn1[nH]c(=O)c2ccccc2c1=O
 : -0.95	x
- CCOC(=O)c1sc(NC(=O)C2CC2)cc1C
 : -0.65	x

Next compounds.
Fields: AID504770	Ba CapD inh
- Fc1cccc(Cl)c1-c1nnc2c(C(F)(F)F)cc3cccnc3n12
 : x	12.4
- CCOC(=O)CN1C(=O)S/C(=C/c2ccc(OCC(N)=O)c(OCC)c2)C1=O
 : 0	0.135
- C=CCc1c(CCC)nc(-c2ccccn2)[nH]c1=O
 : 1.35	-0.315
- Cc1ccc(C(=O)NC(C(=O)O)c2ccccc2)cc1 (stereo not given)
 : -0.7	1.02
- Cc1c(NC(=O)Cn2c(-c3cscn3)nc3ccccc32)c(=O)n(-c2ccccc2)n1C
 : -0.15	x
- COC(=O)c1cc(-c2ccc(F)cc2)nc2onc(C)c12
 : 0.45	x
- COc1cc(NC(=O)CNc2cccc(C#N)c2)cc(OC)c1
 : -1.05	x
- COc1cc(C(=O)N(C)OC)nc(OC)n1
 : x	-0.25
- CN(C)C(=O)CSc1nc(N)cc(=O)[nH]1
 : -0.15	-0.51
- CC1=NN(c2nc3ccccc3nc2Cl)C(=O)C1
 : -0.5	0.475
- COc1ccc(C=C2C(=O)OC3(CCCCC3)OC2=O)cc1OC
 : -0.45	-0.06
- Cc1cc(Cl)ccc1OCc1nc(=S)[nH][nH]1
 : -0.2	x
- COc1ccccc1-c1nn(CCC(=O)NCCCN2CCCC2=O)c2nc(C)cc(C)c12
 : -0.25	29.1
- O=C(COc1ccccc1F)NCc1nc2ccccc2[nH]1
 : -0.2	-0.585
- CCN1C(=O)/C(=C\C=C\c2ccccc2Cl)SC1=S
 : 0.25	0.075
- O=C(Nc1nc(C23CC4CC(CC(C4)C2)C3)cs1)c1c(O)c2c(n(Cc3ccco3)c1=O)CCCC2
 : x	-0.45
- O=C(Nc1c(C(=O)Nc2ccc(F)cc2)oc2ccccc12)c1ccccc1
 : -0.25	0.255
- COc1ccc2nc(NC(=O)c3sc4nc(C)[nH]c(=O)c4c3C)sc2c1
 : x	-0.52
- O=C1OC(c2ccc(F)cc2)=C/C1=C/c1ccc(O)cc1
 : 0.05	-0.715
- CC(C)CCn1c(O)c(N=O)c2ccccc21
 : -0.25	-0.41
- COc1ccc2cccc(O)c2n1
 : 0.55	0.645
- Cc1nc2nc(SCC(=O)O)nn2c(C)c1Cc1ccccc1Cl
 : 0.8	0.595
- CC1CN(c2ccccc2OC(=O)Nc2ccc(OC(F)(F)F)cc2)CC(C)O1 (stereo not given)
 : -0.05	0.88
- Cc1ccc(SCc2cc(=O)[nH]c(Nc3nc(C)c4ccccc4n3)n2)cc1
 : -0.2	2.98
- Cc1ccc(-c2noc(COC(=O)c3ccccc3C(F)(F)F)n2)cc1
 : -0.2	x
- Cc1cc(C)c2c(n1)sc1c(Sc3nnc(-c4ccncc4)o3)ncnc12
 : 0.35	-0.13
- Cc1ccccc1-c1nc2cc(NC(=O)c3cccs3)ccc2o1
 : -0.25	5.51
- COc1ccc(C2C=C(c3ccc(C)cc3)Nc3nc4ccccc4n32)cc1 (stereo not given)
 : x	-0.36
- COc1ccc(C)cc1NC(=O)c1cc(S(=O)(=O)N2CCN(c3cccc(C)c3)C(C)C2)ccc1F (stereo not given)
 : x	-0.81
- CN(C)C(=O)Oc1ccc2nnc3ccnn3c2c1
 : -1	-2.29

In the list so far, 3 contain a nitro group on carbon.
Fields: AID504770	Ba CapD inh
- CCOC(=O)c1ccc(Cn2c3cc([N+](=O)[O-])ccc3c3nn4cc(-c5ccc(OC)cc5)nc4nc32)o1
 : x	-1.1
- COc1cccc(N2C(=O)NC(=O)/C(=C\c3ccc(OC)c([N+](=O)[O-])c3)C2=O)c1
 : x	-0.095
- O=C1CS(=O)(=O)C(c2ccccc2[N+](=O)[O-])N1c1ccc(Oc2ccc(Cl)cc2)cc1 (stereo not given)
 : x	0.285

Continuation.
Fields: AID504770	Ba CapD inh
- COc1cc(CN(CC2CCCO2)C(=O)c2cccs2)cc(OC)c1OC (stereo not given)
 : -0.4	-0.19
- CCC(=O)Nc1ccc(S(=O)(=O)N2CCOCC2)cc1
 : -1.2	0.925
- CCCNC(=O)c1cc(C)nc2c1c(C)nn2-c1ccc(C)cc1
 : -0.65	0.485
- CC1(C)CC(=O)C2=C(C1)N1C(=C(C#N)C2c2cccnc2)NC(=O)c2c1sc1c2CCCC1 (stereo not given)
 : x	-0.59
- CNCC(O)(c1ccc(Cl)cc1)c1ccc(Cl)cc1
 : -0.1	-0.23
- Nc1cccc(Cl)c1N1CCOCC1
 : 0.3	x
- O=C(Nc1ccccc1-c1nc2ccccc2s1)C1=COCCO1
 : 0.3	0.04
- COc1ccc(OC)c(C2/C(=C(/O)c3ccc(C)cc3)C(=O)C(=O)N2c2cccnc2)c1 (stereo not given)
 : -0.85	-0.79
- O=S1(=O)CCC(Nc2nc(CN3CCCCC3)nc3sc4c(c23)CCC4)C1 (stereo not given)
 : 0.2	x
- CC(C)(C)c1ccc(/C=C/C(=O)NC2CCS(=O)(=O)C2)cc1 (stereo not given)
 : -0.5	0.35
- Cc1cccc(CS(=O)(=O)Cc2ccc(C(=O)NCCCN3CCCC3)o2)c1
 : -1.05	-0.175
- N#Cc1cc2c(nc1SCC(O)CNc1ccc(Cl)cc1)CCCC2 (stereo not given)
 : -0.15	0.735
- CN(Cc1ccco1)C(=O)CN1C(=O)/C(=C\c2ccc(C(F)(F)F)cc2)Sc2ccccc21
 : -0.1	4.7
- N#Cc1ccccc1NC(=O)c1ccc2c(Cl)c3c(nc2c1)CCCC3
 : -0.8	-0.795
- CCN(CC)C(=O)c1ccc(N(Cc2ccccc2Cl)S(C)(=O)=O)cc1
 : 1	80
- O=[N+]([O-])c1ccc(OCC(O)CN2CCCN(c3nc4ccc(Cl)cc4s3)CC2)cc1 (stereo not given)
 : x	-0.47
- O=S(=O)(c1cccc(-c2nc3ccccc3s2)c1)N1CCOCC1
 : -0.9	1.8
- CCOC(=O)c1c(C)n(CCOc2cccc(Cl)c2Cl)c2ccc(O)cc12
 : x	-0.355
- Cc1ccc2nc(NC(=O)CSc3cn(C)c4ccccc34)sc2c1
 : 1.45	x
- O=S1(=O)CCN(Cc2cccs2)CC1
 : x	0.61
- O=C(CC(CC(=O)c1ccc(Br)cc1)c1cccnc1)c1ccc(Br)cc1
 : 2.3	0.48
- CCCc1nnc(N(Cc2ccc(Cl)cc2)C(=O)c2ccc(C)cc2)s1
 : 0.5	0.35
- CCC1CCCCN1CC(=O)c1ccco1 (stereo not given)
 : -0.65	x
- CCC/C(=N\O)c1ccccn1
 : 0.2	-0.175
- O=C(NC1CCCCC1)NC1CCN(Cc2nnnn2Cc2ccc3c(c2)OCO3)CC1
 : 0.4	x
- Nc1nc(SCC(=O)N2CCCc3ccccc32)n(-c2ccccc2)n1
 : -0.85	-0.495
- O=C(CSc1nc2[nH]ncc2c(=O)n1-c1ccc(Cl)cc1)Nc1ccc([N+](=O)[O-])cc1Cl
 : x	-0.11
- O=c1[nH]nc(-c2ccccc2)c2ccccc12
 : -1.05	0.035&-0.975
